# Screening results from PubChem BioAssay.
# PD-1 reversal: activators reversing PD-1 mediated T-cell inhibition, primary screen, luminescence, primary human CD4 T cells, PD-L1 beads; CellTiter-Glo 96 h; activation, % (no concentration beside the values); 29,000 tested, under 10 active;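 active means replicate mean of 50% or more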;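 further: 0% = median vehicle wells and 100% = positive control; 100 nL library stock added to about 50 µL; numbers are from one replicate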
# Hedgehog inh: Hedgehog pathway signaling inhibitors, primary screen, luminescence, Shh-LIGHT2 cells, Gli-luciferase; Shh-LIGHT2 Gli-luciferase reporter, 30 h; inhibition, % (no concentration beside the values); 22,000 tested, 2.1% active; AID 2313, 2010;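 active means replicate mean of 65% or more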;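 further: pathway switched on by Shh-conditioned medium diluted 1 in 25 in low serum; 100 nL library stock added to about 40 µL; 0% = median of neutral wells and 100% = positive control level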
# YB-1 expression: inhibitors of YB-1 gene expression, primary screen, cell-based, fluorescence; 30,000 tested, 0.37% active; AID 434959, 2010; delta delta Cp (YB-1 minus CDIP) (concentration not given with the values); U2OS, qRT-PCR YB-1 vs CDIP delta delta Cp, 16 h; active compounds read high; zero = DMSO, each unit about twofold;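 active means delta delta Cp rounded down to an integer at or above 3, about 3 SD of DMSO wells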;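 further: higher means less YB-1 transcript or more CDIP transcript relative to DMSO; stock transfer was 100 nL into about 100 µL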
# MITF inh: inhibitors of MITF, primary screen, MITF inhibitor project, cell-based, luminescence | TRPM1 promoter luciferase, 24 h | inhibition, % (no concentration beside the values) | 37,000 tested, 0.28% active | AID 2240, 2010;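 active means most replicates at 85% or more, or half of them and the mean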;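 further: human melanocyte line stably carrying TRPM1 promoter luciferase reporter; 0% = vehicle wells and 100% = a positive control; the first replicate is given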
# * hit, by the source's call; x = no result given. These rows are one share of the data; the hit share may differ from the screen's.
SMILES,PD-1 reversal,Hedgehog inh,YB-1 expression,MITF inh
C[C@H](CO)N1C[C@H](C)[C@H](CN(C)S(=O)(=O)c2cccs2)Oc2ccc(NC(=O)C3CCCCC3)cc2CC1=O,0.1,18,0.21,-13
C[C@@H]1CN([C@H](C)CO)C(=O)Cc2cc(NC(=O)Cc3cn(C)c4ccccc34)ccc2O[C@H]1CN(C)Cc1ccccc1,x,-31,-0.34,19
N#Cc1c(NC(=O)Cn2ccc([N+](=O)[O-])n2)sc2c1CCC2,0.0,x,x,4
COc1ccc(NC(=O)Nc2ccc3c(c2)CC(=O)N([C@@H](C)CO)C[C@@H](C)[C@@H](CN(C)S(=O)(=O)c2cn(C)cn2)O3)cc1,1.3,-27,-0.24,-10
C[C@@H]1CN([C@H](C)CO)C(=O)c2cc(NC(=O)C3CC3)ccc2O[C@@H]1CN(C)Cc1ccccc1,x,-64,0.2,5
O=C(OC[C@@]1(O)[C@H]2[C@H](O[C@@H]3O[C@H](CO)[C@@H](O)[C@H](O)[C@H]3O)OC=C[C@H]2[C@H](O)[C@H]1Cl)c1ccccc1,-1.5,-8,0.59,-5
CNC[C@@H]1Oc2ccc(NS(C)(=O)=O)cc2C(=O)N([C@H](C)CO)C[C@H]1C,1.0,x,-0.019,-1
C[C@@H]1CCCCO[C@H](CN(C)C(=O)c2ccncc2)[C@@H](C)CN([C@H](C)CO)C(=O)c2cc(NC(=O)c3ccccc3)ccc2O1,x,31,-0.03,-8
C[C@@H]1CN([C@@H](C)CO)C(=O)Cc2cc(NS(=O)(=O)c3cccs3)ccc2O[C@@H]1CN(C)Cc1ccc(Cl)c(Cl)c1,-2.2,22,-0.0017,9
CC(=O)c1cccc(N(CC(=O)Nc2ccc(Br)cc2F)S(C)(=O)=O)c1,0.7,x,x,-5
Cc1ccc(S(=O)(=O)Nc2ccc3c(c2)C(=O)N([C@@H](C)CO)C[C@@H](C)[C@@H](CN(C)S(=O)(=O)c2cccs2)O3)cc1,-1.3,x,0.27,-6
C[C@@H]1CN([C@H](C)CO)C(=O)Cc2cc(NC(=O)C3CCCCC3)ccc2O[C@@H]1CN(C)S(=O)(=O)c1ccc(Cl)cc1,-1.8,-47,0.091,4
C[C@H]1CN([C@@H](C)CO)C(=O)c2cc(NC(=O)Cn3cnnn3)ccc2O[C@@H]1CN(C)Cc1ccc(Oc2ccccc2)cc1,-0.2,-24,0.15,-7
COc1ccc(S(=O)(=O)Nc2cccc3c2O[C@@H](CN(C)S(=O)(=O)c2ccc(Cl)cc2)[C@@H](C)CN([C@@H](C)CO)C3=O)cc1,-1.1,14,0.9,9
Cc1ccc(S(=O)(=O)N(C)C[C@@H]2Oc3ccc(NC(=O)CCN4CCOCC4)cc3C(=O)N([C@@H](C)CO)C[C@@H]2C)cc1,-1.7,x,-0.25,-9
O=C(O)c1cc(N(Cc2ccccc2O)Cc2cc(O)ccc2O)ccc1O,x,35,0.14,23
C[C@H](CO)N1C[C@H](C)[C@H](CN(C)Cc2ccc3c(c2)OCO3)Oc2ccc(NS(=O)(=O)c3cn(C)cn3)cc2C1=O,x,x,0.017,-11
Cc1noc(C)c1S(=O)(=O)Nc1ccc2c(c1)CC(=O)N([C@H](C)CO)C[C@@H](C)[C@@H](CN(C)C(=O)Nc1ccc(F)cc1)O2,-0.8,-32,0.29,-9
Cn1c(SCC(=O)Nc2cc(C(F)(F)F)ccc2Cl)nnc1-c1ccc(Br)cc1,0.4,x,x,9
CCc1c(O)nc(SCC(N)=O)n(-c2ccccc2F)c1=O,0.0,x,x,-8
CS/C(NC1CCCCC1)=C(/C#N)S(=O)(=O)c1ccc(Cl)cc1,-0.5,20,-0.0051,4
C[C@@H]1CN([C@@H](C)CO)C(=O)c2cc(NC(=O)NC3CCCCC3)ccc2O[C@H]1CN(C)Cc1ccc(Oc2ccccc2)cc1,-1.0,x,-0.13,1
COc1ccc([N+](=O)[O-])cc1NC(=O)CN(c1ccccc1Cl)S(C)(=O)=O,0.6,x,x,-11
C[C@H]1CN([C@@H](C)CO)C(=O)Cc2cc(NC(=O)C3CC3)ccc2O[C@@H]1CN(C)C(=O)Nc1ccc(F)cc1,x,x,-0.078,0
C[C@@H]1CN([C@H](C)CO)C(=O)c2cccc(NC(=O)CCCCCC(=O)Nc3ccccc3N)c2O[C@@H]1CN(C)S(=O)(=O)c1ccc(F)cc1,-1.0,x,-0.09,-9

# Some of the entries above in another layout:
# Every second line gives: PD-1 reversal, Hedgehog inh, YB-1 expression, MITF inh
Cc1ccc(S(=O)(=O)Nc2ccc3c(c2)C(=O)N([C@@H](C)CO)C[C@@H](C)[C@@H](CN(C)S(=O)(=O)c2cccs2)O3)cc1
    -1.3, x, 0.27, -6
C[C@H](CO)N1C[C@H](C)[C@H](CN(C)S(=O)(=O)c2cccs2)Oc2ccc(NC(=O)C3CCCCC3)cc2CC1=O
    0.1, 18, 0.21, -13
C[C@@H]1CCCCO[C@H](CN(C)C(=O)c2ccncc2)[C@@H](C)CN([C@H](C)CO)C(=O)c2cc(NC(=O)c3ccccc3)ccc2O1
    x, 31, -0.03, -8

# The results go on:
SMILES,PD-1 reversal,Hedgehog inh,YB-1 expression,MITF inh
CC(C)NC(=O)Nc1cccc2c1O[C@@H](CN(C)S(=O)(=O)c1cn(C)cn1)[C@@H](C)CN([C@H](C)CO)C2=O,1.2,-58,-0.17,2
Cc1noc(C)c1NC(=O)N(C)C[C@H]1Oc2c(NS(=O)(=O)c3ccccc3)cccc2C(=O)N([C@H](C)CO)C[C@@H]1C,x,4,0.89,-11
Cn1c(SCCCN2C(=O)c3cccc4cccc(c34)C2=O)nnc1-c1ccncc1,0.5,x,x,-63
C[C@@H]1CCCCO[C@H](CN(C)C(=O)Nc2ccc3c(c2)OCO3)[C@@H](C)CN([C@H](C)CO)C(=O)c2cc(NS(C)(=O)=O)ccc2O1,0.1,x,0.12,1
Cc1ccc(Nc2nc(N)nc(CN3CCN(C(c4ccccc4)c4ccccc4)CC3)n2)cc1,-9.2,x,x,47
COc1ccc(Cl)cc1N(CC(=O)Nc1cccc(Cl)c1C)S(C)(=O)=O,-2.8,x,x,-1
CC(C)=CCC1C(=O)C(=O)c2ccccc2C1=O (stereo not given),x,-19,0.23,3
C[C@H]1CN([C@@H](C)CO)C(=O)Cc2cc(NC(=O)CCC(F)(F)F)ccc2O[C@H]1CN(C)C(=O)Nc1ccc(F)cc1,0.0,14,-0.0058,-3
C[C@@H]1CN([C@H](C)CO)C(=O)c2cccc(NS(C)(=O)=O)c2O[C@H]1CN(C)Cc1ccc(-c2ccccc2)cc1,0.2,-27,-0.48,-12
CCc1nc(-n2nnc3cc(C)c(C)cc32)c2c3c(sc2n1)CCCC3,0.6,-4,-0.23,33
COc1ccc(NC(=O)N(C)C[C@H]2Oc3c(NC(=O)c4ccc(-c5nccs5)cc4)cccc3C(=O)N([C@H](C)CO)C[C@H]2C)cc1,-1.0,12,-0.62,6
C[C@@H]1CN([C@@H](C)CO)C(=O)c2cc(NC(=O)CCC(F)(F)F)ccc2O[C@H]1CN(C)C(=O)Nc1ccc(C(F)(F)F)cc1,-1.0,33,-0.22,-5
C[C@@H]1CCCCO[C@H](CN(C)Cc2ccc(C(F)(F)F)cc2)[C@@H](C)CN([C@H](C)CO)C(=O)c2cc(NS(=O)(=O)c3ccccc3)ccc2O1,x,-2,0.086,44
C[C@@H]1CN([C@H](C)CO)C(=O)c2cc(NS(=O)(=O)c3ccc(F)cc3)ccc2O[C@H]1CN(C)C(=O)Nc1ccc(C(F)(F)F)cc1,0.4,-5,0.2,-1
COc1ccc(N(C(C)C(=O)Nc2ccc(Cl)cc2)S(C)(=O)=O)cc1 (stereo not given),1.9,x,x,-7
CCOC(=O)c1sc(NC(=S)N2CCN(c3ncccn3)CC2)c(C(=O)OCC)c1C,0.3,x,x,-5
CCn1c(=O)cc(O)c2ccccc21,-0.8,-22,-0.26,11
COc1ccc(S(=O)(=O)Nc2ccc3c(c2)C(=O)N([C@H](C)CO)C[C@@H](C)[C@@H](CN(C)Cc2ccc(Oc4ccccc4)cc2)O3)cc1,-1.0,68*,-0.42,40
Cc1cccc(-c2nnc(SCC(=O)Nc3cc(F)ccc3C)n2-c2ccccc2)c1,-0.2,x,x,8
CC1(O)CC(=O)c2c(ccc3c2C(=O)c2cccc(O)c2C3=O)C1 (stereo not given),0.4,-29,-0.3,11
C[C@@H]1CN([C@@H](C)CO)C(=O)c2cc(NS(=O)(=O)c3ccc(Cl)cc3)ccc2O[C@@H]1CN(C)Cc1ccncc1,0.2,x,-0.17,-6
C[C@H](CO)N1C[C@H](C)[C@H](CN(C)S(C)(=O)=O)Oc2ccc(NC(=O)Nc3ccccc3)cc2CC1=O,-0.5,x,-0.084,2
COc1ccc(N(CC(=O)Nc2ccccc2F)S(C)(=O)=O)cc1Cl,2.1,x,x,-2
C[C@@H]1CN([C@@H](C)CO)C(=O)c2cccc(NC(=O)Nc3ccc(F)cc3)c2O[C@@H]1CN(C)Cc1ccc(Oc2ccccc2)cc1,-3.8,-5,-0.026,-8
Cc1cc(C(=O)Nc2cccc3c2O[C@@H](CN(C)C(=O)NC(C)C)[C@@H](C)CN([C@H](C)CO)C3=O)n(C)n1,x,0,0.023,1

# Retrieved by structure from above (four):
SMILES,PD-1 reversal,Hedgehog inh,YB-1 expression,MITF inh
C[C@@H]1CN([C@@H](C)CO)C(=O)c2cc(NS(=O)(=O)c3ccc(Cl)cc3)ccc2O[C@@H]1CN(C)Cc1ccncc1,0.2,x,-0.17,-6
Cc1cccc(-c2nnc(SCC(=O)Nc3cc(F)ccc3C)n2-c2ccccc2)c1,-0.2,x,x,8
C[C@H](CO)N1C[C@H](C)[C@H](CN(C)S(C)(=O)=O)Oc2ccc(NC(=O)Nc3ccccc3)cc2CC1=O,-0.5,x,-0.084,2
COc1ccc(N(C(C)C(=O)Nc2ccc(Cl)cc2)S(C)(=O)=O)cc1 (stereo not given),1.9,x,x,-7

# Other results follow:
SMILES,PD-1 reversal,Hedgehog inh,YB-1 expression,MITF inh
Cc1noc(C)c1NC(=O)N(C)C[C@H]1Oc2c(NC(=O)Nc3cccc4ccccc34)cccc2C(=O)N([C@@H](C)CO)C[C@@H]1C,1.0,0,0.16,1
C[C@@H]1CN([C@@H](C)CO)C(=O)Cc2cc(NS(=O)(=O)c3ccc(F)cc3)ccc2O[C@@H]1CN(C)S(=O)(=O)c1ccc(F)cc1,0.9,4,0.064,-16
Cc1ccc(S(=O)(=O)Nc2ccc3c(c2)C(=O)N([C@@H](C)CO)C[C@H](C)[C@@H](CN(C)Cc2ccc(Oc4ccccc4)cc2)O3)cc1,-2.3,22,0.13,10
Cc1ccc(OCC(=O)Nc2cccc(-c3nc4cc(Cl)ccc4o3)c2C)c(C)c1,0.1,x,x,-1
Cc1cc(C(=O)Sc2cccc(C(F)(F)F)c2)nn1C(C)(C)C,-7.7,-11,0.59,-17
CSc1sc(-c2ccon2)c(-c2ccco2)c1C#N,0.9,13,-0.03,-56
CCOC(=O)c1cnc(S/C=C/C(=O)c2ccc(C)cc2)nc1N,-48,33,0.095,30
C[C@@H]1CN([C@H](C)CO)C(=O)Cc2cc(NS(=O)(=O)c3ccc(F)cc3)ccc2O[C@@H]1CN(C)S(=O)(=O)c1ccccc1,0.4,-20,0.14,-7
C[C@H](CO)N1C[C@H](C)[C@H](CN(C)Cc2ccc(-c3ccccc3)cc2)Oc2c(NS(=O)(=O)c3cn(C)cn3)cccc2C1=O,-0.3,31,0.056,-2
C[C@@H]1CN([C@H](C)CO)C(=O)c2cccc(NC(=O)Nc3ccc4c(c3)OCO4)c2O[C@@H]1CN(C)Cc1ccccc1,1.6,-9,-0.41,-12
Cc1ccc(S(=O)(=O)Nc2ccc3c(c2)C(=O)N([C@H](C)CO)C[C@@H](C)[C@H](CN(C)C(=O)NC(C)C)O3)cc1,2.6,x,-0.15,-3
CCC(SC1=NCCS1)C(=O)Nc1ccc(NC(C)=O)cc1 (stereo not given),0.0,x,x,1
COc1ccc(OC)c(NC(=O)c2ccc(CSc3ncnc4nc[nH]c34)cc2)c1,0.7,68*,0.082,33
COC(=O)c1ccccc1NC(=O)c1ccc(NC(=O)COc2ccccc2)cc1,1.6,x,x,23
Cc1noc(C)c1S(=O)(=O)N(C)C[C@H]1OCCCC[C@@H](C)Oc2ccc(NC(=O)Nc3ccc4c(c3)OCO4)cc2C(=O)N([C@H](C)CO)C[C@@H]1C,x,-33,-0.067,3
C[C@@H]1CN([C@H](C)CO)C(=O)Cc2cc(NS(=O)(=O)c3ccccc3)ccc2O[C@H]1CN(C)Cc1ccc(Cl)c(Cl)c1,0.2,36,-9.8,23
CCOC(=O)c1c(CSc2cccc3cccnc23)nc2c3ccccc3ccn12,-3.4,x,x,5
COc1ccc(S(=O)(=O)N(C)CC(=O)N2CCOCC2)cc1OC,2.2,x,x,-9
CCOC(=O)CC1C(=O)NCCN1C(=O)c1sc2ccccc2c1Cl (stereo not given),2.5,x,x,1
C[C@H]1CN([C@@H](C)CO)C(=O)c2cccc(NS(=O)(=O)c3ccc(Cl)cc3)c2O[C@H]1CN(C)CC1CCCCC1,-0.6,1,0.032,-3
CCCS(=O)(=O)/C(C#N)=C/c1sccc1Oc1ccccc1,0.0,22,-0.38,0
